# Vaccinia mCherry: inhibitors of vaccinia virus infection (mCherry reporter signal) | Potency, µM (doses to about 36.5 µM), for the others: at the top dose activity change, negative = inhibition, actives largely listed as inhibitors | AID 720579 | Vaccinia virus mCherry reporter infection, fluorescence; about a quarter of the inactives have no number | actives 0.63% (n = 310,000); active = well fitted inhibition curve with a large enough effect; inconclusive = small, poorly fitted or top-dose-only effect; inactive = no such curve, though single readings can be large or run the other way; tested in A549 cells; note: nearly all actives have a fitted effect of over 35% in size; inactives centre near -10
# Vaccinia Venus: vaccinia inhibition (Venus reporter). Vaccinia virus Venus reporter expression, fluorescence. Potency, µM (series often up to 36.5 µM), inactives show at the highest dose activity change, negative = inhibition, actives largely listed as inhibitors. actives 0.46% (n = 330,000). AID 720580; active means well fitted inhibition curve with a large enough effect; inconclusive means small, poorly fitted or top-dose-only effect; inactive means no such curve, though single readings can be large or run the other way; tested in A549 cells; note: nearly all actives have a fitted effect of over 30% in size; inactives centre near -10
# Starred values were filed as active, the others as inactive; i = inactive; u = inconclusive; x = not tested or not shown; [ ] = remark or other dose. % is set by controls: 0 for no effect and ±100 for the full control effect; potency is the fitted concentration of half-maximal effect. Hits appear at their usual frequency; overall some 0.82% were active at least once.
SMILES,Vaccinia mCherry,Vaccinia Venus
CC1(C)C(=O)OC(C(=O)c2ccc(C(C)(C)C)cc2)C(C)(C)C1=O (stereo not given),x,-20%
O=C(COC(=O)CNC(=O)c1ccc(Cl)cc1Cl)Nc1ccc(N2CCOCC2)cc1,i,-9%
Cc1cccc2cc(-c3ccccc3)c(-c3ccccc3)c[n+]12,0%,-15%
Cc1nc(N2CCOCC2)c2c(C(=O)NCCc3ccccc3)c(C)oc2n1,i,-8%
O=C(N/N=C/c1ccc(Cl)cc1Cl)C(=O)NC1CC1,i,-6%
Cc1ccc(NC(=O)C(C)N2CCc3ccccc3C2)cc1 (stereo not given),u,-14%
CCOC(=O)N(C)C[C@H]1OCc2cnnn2CCCC(=O)N([C@@H](C)CO)C[C@@H]1C,i,-11%
COc1ccc(C2=C(SC)CC2=NC(C)(C)C)cc1,-17%,-8%
CC1CN(C(=O)c2ccc(N3CCCCC3)c([N+](=O)[O-])c2)CC(C)O1 (stereo not given),-9%,-6%
CCC1CCCCN1CCCNC(=O)CN1C(=O)COc2ccccc21 (stereo not given),-13%[7.34 µM],-2%[7.34 µM]
CCc1cccc(CC)c1NC(=S)NC(C)c1ccccc1 (stereo not given),-4%,-12%
OCC[C@H]1C[C@@H](O)[C@H](O)[C@@]2(CCc3ccccc3O2)O1,-11%,-4%
O=C(c1cccs1)c1ccccc1Cc1cccs1,-18%,2%
CCN(CC)C(=O)c1sc(NC(=O)C(C)C)c(C#N)c1C,-5%,-5%
CC(C)c1ccc2[nH]c3c(c2c1)CCC/C3=N\NC(=O)c1ccncc1,-7%,u
Cc1ccc([C@H]2C[C@@H](n3cc(C4CC4)nn3)[C@H](O)CN2C(=O)C2CCCCC2)cc1,i,-11%
COc1ccc2nc(N=Nc3ccc(N(C)C)cc3)sc2c1,-13%,-14%
O=C(CSc1ncnc2sccc12)Nc1ccc(S(=O)(=O)N2CCOCC2)cc1,u,u
COc1ccccc1CNC(=O)Cc1csc2nc(-c3ccc(F)cc3)cn12,-11%,-6%
O=C(CCSCc1cccc(Cl)c1)NCCC1=CCCCC1,-4%,-2%
COc1ccc(S(=O)(=O)N(C)c2ccc(C(=O)N3CCCCC3)cc2)cc1OC,3%,-14%
CCOC(=O)c1c(/N=C/C2=C(O)CC(C)(C)CC2=O)sc(C)c1C,-13%,-13%
Oc1c(Cl)cc(Cl)c(Cl)c1Cc1c(O)c(Cl)cc(Cl)c1Cl,u,u
COc1ccc2cc(CCNC(=O)C3CCCC3)c(=O)[nH]c2c1,-15%,-11%
CN(C)CC/C=C1\c2ccccc2CSc2ccccc21,-16%,-28%
O=C1CC2C(=O)NCCN2C(=NC(=O)c2ccc(Cl)cc2)N1 (stereo not given),-17%,-2%
C[C@@]12C(=O)N(Cc3ccccc3)CC(=O)N1[C@H](/C=C/c1ccccc1)[C@@H]1C(=O)N(c3ccccc3)C(=O)[C@@H]12,i,-7%
CC1(C(=O)NS(=O)(=O)c2ccc(F)cc2F)CCN1C(=O)CCc1ccccc1 (stereo not given),40%[activator],-6%
COC(=O)c1ccc(C2c3c(oc4ccc(Cl)cc4c3=O)C(=O)N2CCN2CCOCC2)cc1 (stereo not given),i,0%
Cc1ccc(Cl)cc1N(C)C(=O)c1cn(C2CCCCC2)c(=O)c2c1c1ccccc1n2C,-23%,-21%
Cn1c(=O)n(C)c2cc(NC(=O)CSc3ccccc3)ccc21,i,-12%
COc1ccc(CNC(=O)CS(=O)Cc2nc(-c3ccccc3C)oc2C)cc1 (stereo not given),i,-10%
COC(=O)c1cn(CCOc2ccccc2)c2ccccc12,x,u
CCOC(=O)C1=C(O)/C(=C/c2cc(OC)c(OC)c(OC)c2)N=C1C,x,-7%
COc1ccc(NC(=O)c2ccc(S(=O)(=O)N3CCCCCC3)cc2)c(OC)c1,i,-12%
O=C(Nc1cccc2ccccc12)c1cc2c(cc1Br)OCO2,-2%,-4%

# An excerpt from above in order of molar mass, low to high.
SMILES,Vaccinia mCherry,Vaccinia Venus
COC(=O)c1cn(CCOc2ccccc2)c2ccccc12,x,u
CCC1CCCCN1CCCNC(=O)CN1C(=O)COc2ccccc21 (stereo not given),-13%[7.34 µM],-2%[7.34 µM]
O=C(Nc1cccc2ccccc12)c1cc2c(cc1Br)OCO2,-2%,-4%

# Following part:
SMILES,Vaccinia mCherry,Vaccinia Venus
Cc1cc(NC(=O)c2noc3c2CCCC3)no1,-8%,-5%
C#CCOCCOCCOCCNc1nc(N2CCN(C(=O)Cn3cc(CCCCN)nn3)CC2)nc(N2CCN(C(=O)Cn3cc(CCCCN)nn3)CC2)n1,i,-11%
Cc1cc(F)ccc1-c1cc(C(=O)NCc2ccc(C(F)(F)F)cc2)[nH]n1,i,-8%
COc1ccc(S(=O)(=O)N2CCN(C(=O)c3c(-c4ccccc4)noc3C)CC2)cc1,x,-24%
Cc1ccccc1NCC(=O)N/N=C\c1ccc2c(c1)OCO2,-10%,-16%
Cc1ccc(C)c(NC(=O)Cn2cc(C(=O)C3CC3)c3ccccc32)c1,-18%,-28%
Cc1ccc(C(=O)NNC(=O)C2CCN(c3ncccn3)CC2)cc1,i,-10%
CC(C)NC(=O)N(C)C[C@@H]1Oc2c(NS(=O)(=O)c3ccccc3)cccc2C(=O)N([C@@H](C)CO)C[C@@H]1C,-25%,-2%
Cc1ccc(-n2nnnc2SCC(=O)Nc2ncc(Cc3ccccc3Cl)s2)cc1,i,-8%
N/C(=N\[N+](=O)[O-])N/N=C/c1ccc(O)cc1,-4%,-2%
O=S(=O)(c1ccccc1)c1nc(-c2ccccc2Cl)oc1NCCN1CCOCC1,i,-16%
Cc1nc2cc(NC(=O)Nc3nccs3)ccc2n1C,-22%,-20%
CC1CC(C)CN(C(=O)Cn2nnc(-c3ccccc3)n2)C1 (stereo not given),-9%,0%
CCCCOc1ccc(CNC(=O)c2ccc(NC(=O)N3CCCCc4ccccc43)cc2)cc1,-8%,u
C=C[C@]1(C)C=C2CC[C@H]3[C@@](C)(CCC[C@@]3(C)C(=O)O)[C@@H]2CC1,i,-18%
CCc1ccc(NC(=O)CCCN2C(=S)NC(C)(C)CC2C)cc1 (stereo not given),-11%,-10%
CSc1ccccc1NC(=O)CSc1nnc(Cc2ccccc2)o1,i,-3%
NC(=O)C1=C[C@H](c2ccccc2)C[C@H](OCc2ccc(CO)cc2)O1,u,-12%
COc1ccccc1N1CCN(C(=O)c2cnn(C(C)(C)C)c2C2CCN(C(=O)OC(C)(C)C)CC2)CC1,-11%,-2%
NS(=O)(=O)c1ccc(Cl)cc1[N+](=O)[O-],u,-12%
Cc1ccc(OCCNC(=O)Cc2ccc(S(=O)(=O)N3CCOCC3)s2)cc1,-14%,-12%
CC(C)(C)NC(=O)CN(C(=O)CCC(=O)Nc1nccs1)c1ccc(F)c(Cl)c1,-4%,-5%
Cc1cccc(/C=N/NC(=O)c2cc(-c3cccnc3)nc3c2c(C)nn3-c2ccccc2)c1,-13%,-11%
CCOC(=O)c1c(N)sc(N)c1C(=O)OCC,-5%,13%
COc1ccc(NS(=O)(=O)c2ccc(N3CCOCC3)c(NC(=O)c3ccc(F)cc3)c2)cc1,-29%,-22%
Cc1nn(-c2ccccc2)c(Cl)c1C(=O)Nc1nnc(C2CCCC2)s1,-14%,-8%
CC(C)(C)NC(=O)COC(=O)c1ccccc1Oc1ccccc1,i,-4%
CC[C@]12c3[nH]c4ccccc4c3CCN1C(=O)C(CC(=O)NCc1cccc(C(F)(F)F)c1)C[C@@H]2C(=O)N1CCN(C(=O)C2CC2)CC1 (stereo not given in full),-9%,-25%
O=C(NCC(c1cccs1)N1CCOCC1)c1cc(F)cc(F)c1 (stereo not given),u,u
CC(C)c1ccc(C(=O)N2CCOCC2c2cc(C(=O)Nc3ccccc3)no2)cc1 (stereo not given),3%,-5%
Brc1ccccc1/C=N/Nc1ccc2ccccc2n1,-6%,-17%
CN(C)C(=O)C(Sc1ccc(S(=O)(=O)N2CCCC2)cn1)c1ccccc1 (stereo not given),-25%,-12%
CC(=O)Nc1ccc(N2C(=O)CC(Sc3nc(C)cc(C)n3)C2=O)cc1 (stereo not given),-12%,-6%
Cc1cc(Nc2nc3ccccc3nc2Cl)n(-c2ccc([N+](=O)[O-])cc2)n1,u,u
O=C(NCc1ccccc1)c1ccc(NC2=NC3CS(=O)(=O)CC3S2)cc1 (stereo not given),-12%,-8%
COc1ccc(CN2CCN(C(=O)CC(C)C)CC2)cc1OC,i,-5%
CCOC(=O)N1CCN(c2ncc(C(F)(F)F)cc2Cl)CC1,-7%,-11%
Nc1ccc2c(c1Cl)C(=O)c1ccc(N)c(Cl)c1C2=O,-22%,3%
COCCN(Cc1cc2cc(C)ccc2[nH]c1=O)S(=O)(=O)c1ccc(Cl)cc1,i[7.34 µM],0%[7.34 µM]
COc1ccccc1Nc1nc(N)nc(N)c1S(=O)(=O)c1ccccc1,-19%,-8%
Cc1ccc(CSc2nnc(CCNC(=O)OC(C)(C)C)o2)cc1,-9%,-1%
CC(=O)c1c(C(C)=O)c(C)n(Cc2ccccc2)c1C,-15%,-19%
CCN(CC)CCCNS(=O)(=O)c1ccc(OC)cc1,-5%,-16%
COc1cc(C2C(C#N)=C(N)Oc3cc(C)n(CCc4ccccc4)c(=O)c32)cc2c1OCO2 (stereo not given),3%,6%
CCCCSc1nnc(-c2ccc(NC(=O)CCc3ccccc3)cc2)n1C,-1%,-17%
CNC(=S)N1N=C(c2ccccc2)CC1c1ccc(OC)c(OC)c1 (stereo not given),-2%,-12%
CCOc1ccc(NC(=O)c2cccc3c2C(=O)N(CC2CCCO2)C3)cc1 (stereo not given),i,-9%
Cc1ccc(S(=O)(=O)N2CCN(C(=O)COC(=O)c3c(C)cc(C)cc3C)CC2)c(C)c1,-16%,-27%

# 4 entries from above in another layout.
mol	Vaccinia mCherry	Vaccinia Venus
COc1cc(C2C(C#N)=C(N)Oc3cc(C)n(CCc4ccccc4)c(=O)c32)cc2c1OCO2 (stereo not given)	3%	6%
CCOc1ccc(NC(=O)c2cccc3c2C(=O)N(CC2CCCO2)C3)cc1 (stereo not given)	i	-9%
COc1ccccc1Nc1nc(N)nc(N)c1S(=O)(=O)c1ccccc1	-19%	-8%
CNC(=S)N1N=C(c2ccccc2)CC1c1ccc(OC)c(OC)c1 (stereo not given)	-2%	-12%

# (continued)
SMILES,Vaccinia mCherry,Vaccinia Venus
COc1ccc(N2CCN(S(=O)(=O)c3ccc(C(=O)NCc4ccco4)cc3)CC2)cc1,-19%,-12%
COc1cc(OC)cc(-c2c(C#Cc3ccsc3)c3cc(-c4cc(OC)c(OC)c(OC)c4)ccc3n2C)c1,u,-22%
CCc1nnc(NC(=O)c2cccc(OC)c2)s1,x,-3%
Cn1ccc2c(N3c4ccccc4CCc4ccccc43)cc3c(c21)C1CCC3C1 (stereo not given),-9%,-15%
Cn1c(CNC(=O)c2ccco2)nnc1SCC(=O)Nc1ccc(Br)cc1F,-18%,-9%
Cc1ccc(Cl)cc1NC(=O)c1oc2ccc(S(=O)(=O)N3CCCCC3)cc2c1C,-3%,-15%
Cc1ccc(C(C)C)c(OCC(=O)N2CCN(CCc3ccncc3)CC2)c1,-9%,2%
COc1ccc(C2OCC3(CO2)SC(=O)NC3=O)cc1OC (stereo not given),-11%,-3%
COc1ccc(CNC(=O)C(c2ccc(C)o2)N(C(=O)c2snc(C(N)=O)c2N)c2ccccc2OC)cc1 (stereo not given),3%,-8%
N=c1n(CCN2CCCCC2)c2ccccc2n1CC(=O)c1cccs1,u,-21%
COc1ccc(NC(=O)C(=O)NCCc2csc3nc(-c4ccccc4F)nn23)cc1OC,-6%,1%
O=C(OCC(=O)N1CCOCC1)c1ccc2ccccc2c1O,i,-16%

# The list goes on; the last 2 above are carried over.
SMILES,Vaccinia mCherry,Vaccinia Venus
COc1ccc(NC(=O)C(=O)NCCc2csc3nc(-c4ccccc4F)nn23)cc1OC,-6%,1%
O=C(OCC(=O)N1CCOCC1)c1ccc2ccccc2c1O,i,-16%
CCOc1ccc(NC(=O)CSc2oc(-c3ccc(F)cc3)nc2S(=O)(=O)c2ccc(C)cc2)cc1,u,u
COc1ccc(-n2c(/C=C/c3c(C)[nH]c4ccccc34)nc3ccccc3c2=O)cc1,-22%,-25%
COc1ccc(OC)c(NC(=O)c2cc(S(=O)(=O)N3CCCCC3)c[nH]2)c1,-27%,-13%
CCOC(=O)CCNc1n[nH]c(=O)[nH]c1=O,-4%[1.46 µM],-8%
Cc1cc(C)nc(/N=c2/ssnc2Cl)c1,-10%,25%
CCCCOc1ccc(C2(C)NC(=O)NC2=O)cc1 (stereo not given),-13%,0%
CCOc1ccc(CCNC(=O)c2sc3nc4n(c(=O)c3c2C)CCC4)cc1OCC,-15%,-9%
CCN(CC)C(=O)c1cccc(-c2csc(C(NC(C)=O)c3ccc(F)c(F)c3)n2)c1 (stereo not given),12%,-4%
O=C(NCCc1ccc(Cl)cc1)c1ccc2c(c1)N(Cc1ccccc1F)C(=O)c1ccccc1S2(=O)=O,-4%,-9%
Cc1cc(/C=C(\C#N)c2nc3ccccc3[nH]2)c(C)n1C,-21%,-27%
COc1ccccc1C(=O)n1nc(-c2ccco2)nc1SC,u,-19%
Cc1ccc(CNC(=O)C2CC(c3cccc([N+](=O)[O-])c3)=NO2)cc1 (stereo not given),u,-22%
COc1ccc(/C=N/NC(=O)OC(C)(C)C)cc1OC,-17%,-10%
O=C(c1cc(=O)c2ccccc2o1)N1CCN(c2cccc(Cl)c2)CC1,-12%,0%

# Three entries drawn at random from those above:
SMILES,Vaccinia mCherry,Vaccinia Venus
CCOc1ccc(NC(=O)CSc2oc(-c3ccc(F)cc3)nc2S(=O)(=O)c2ccc(C)cc2)cc1,u,u
CCCCOc1ccc(C2(C)NC(=O)NC2=O)cc1 (stereo not given),-13%,0%
COc1ccc(OC)c(NC(=O)c2cc(S(=O)(=O)N3CCCCC3)c[nH]2)c1,-27%,-13%
